Source: PubChem (ICCB-Longwood Screening Facility, Harvard Medical School)
GIV-Gai inh: blocks GIV peptide binding to rat Galpha-i3. 0.42% of 210,000 active. P08753. percent of control (FP), % (concentration not given with the values). Galpha-i3/FITC-GIV peptide fluorescence polarization, 90 min; hits give low values; scaled: aluminum fluoride 0%, vehicle 100%;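 active = replicate mean at 85% of control or lower, very high polarization wells dropped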;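 note: wells of about 15 µL received 100 nL stock; the first replicate is given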
Target sequence (P08753 whole entry, looked up): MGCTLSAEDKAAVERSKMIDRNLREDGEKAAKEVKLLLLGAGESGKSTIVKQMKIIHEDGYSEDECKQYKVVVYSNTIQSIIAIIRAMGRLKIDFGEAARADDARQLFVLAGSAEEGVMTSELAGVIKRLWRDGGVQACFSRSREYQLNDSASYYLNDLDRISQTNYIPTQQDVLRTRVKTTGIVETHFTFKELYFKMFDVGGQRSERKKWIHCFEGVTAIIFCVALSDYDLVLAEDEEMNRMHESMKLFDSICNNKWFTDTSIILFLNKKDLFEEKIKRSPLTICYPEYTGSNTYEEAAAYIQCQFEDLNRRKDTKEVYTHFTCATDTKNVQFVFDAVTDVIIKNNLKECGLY
* = called active by the depositor. Only part of the results is shown; count on the stated rates, not on these rows.

SMILES	GIV-Gai inh
CCCCCN1/C(=C\C=C\c2n(CC)c3cc(Cl)c(Cl)cc3[n+]2CCCCC)N(CC)c2cc(Cl)c(Cl)cc21	-62*
O=C1CC(n2nc(COc3ccccc3)n(-c3ccccc3)c2=S)C2COC1O2 (configuration not stated)	108
CC(C)Oc1ccccc1C1Nc2ccc3ccccc3c2C2=C1C(=O)CC(C)(C)C2 (configuration not stated)	108
O=C(NCCCn1ccnc1)c1nn2c(C(F)(F)F)cc(-c3ccco3)nc2c1Br	115
CCOC(=O)C1=C(c2ccccc2)N=C2SCC(=O)N2C1c1ccc(Cl)cc1 (configuration not stated)	108
COc1ccc(S(=O)(=O)NC2CCN(C(=O)c3ccc(OC)c(OC)c3)CC2)cc1	103
CCCc1nn2c(=O)cc(CN(Cc3ccc(C)cc3)CC(C)C)nc2s1	108
CCOC(=O)CC1(NC(=O)NCCc2nc(-c3ccc(OC)cc3)n[nH]2)CCCCC1	104
Cc1nc(N2CCN(c3ccccn3)CC2)c2c(C)c(C(=O)Nc3cccc([N+](=O)[O-])c3)sc2n1	101
CSc1ccccc1NC(=O)C1CC(=O)N(c2ccc3c(c2)CCN3C(=O)C2CC2)C1 (configuration not stated)	108
COc1ccc(-c2noc(Cc3nc(-c4ccc(Br)cc4)cs3)n2)cc1	118
O=C(Nc1cc(F)c2[nH]c(=O)ccc2c1)c1cccc(F)c1	107
COc1cc(C(=O)Oc2ccc3[nH]cc(CCN4C(=O)c5ccccc5C4=O)c3c2)cc(OC)c1OC	112
O=C1c2cc(O)ccc2-c2ccc(O)cc21	111
Brc1ccc(-c2cnc3ccccc3n2)cc1	100

Retrieved by compound from the list above:
SMILES	GIV-Gai inh
CCOC(=O)CC1(NC(=O)NCCc2nc(-c3ccc(OC)cc3)n[nH]2)CCCCC1	104
O=C(Nc1cc(F)c2[nH]c(=O)ccc2c1)c1cccc(F)c1	107
CSc1ccccc1NC(=O)C1CC(=O)N(c2ccc3c(c2)CCN3C(=O)C2CC2)C1 (configuration not stated)	108
Cc1nc(N2CCN(c3ccccn3)CC2)c2c(C)c(C(=O)Nc3cccc([N+](=O)[O-])c3)sc2n1	101

Remaining list, next part
SMILES	GIV-Gai inh
O=C1C(=O)N(c2ccccc2)C(c2ccccc2)/C1=C(\O)c1ccccc1 (configuration not stated)	111
COc1cccc(C(=O)Nc2cc(S(=O)(=O)N3CCCC3)sc2C)c1OC	101
COc1ccccc1NC(=O)CSc1nnc(C(C)N2C(=O)COc3ccccc32)n1C (configuration not stated)	102
O=C(c1ccc(N2CC3CC(C2)c2cccc(=O)n2C3)c(NS(=O)(=O)c2ccc(Cl)cc2)c1)N1CCCCCC1 (configuration not stated)	108
O=C(Nc1ccccc1F)N1CCC(n2cnc3cc(Cl)ccc3c2=O)CC1	103
COc1ccc(/C=N/OCc2nc3c4c(-c5ccccc5)c(-c5ccccc5)oc4ncn3n2)cc1OC	103
C#CCOc1ccc(C2CC(=O)Nc3c2cnn3-c2nc3ccccc3s2)cc1 (configuration not stated)	103
COc1ccc(OC)c(C2C(C(=O)Nc3ccc(F)cc3)=C(C)NC3=C2C(=O)CC(c2ccccc2)C3)c1 (configuration not stated)	105
CC(C)C(=O)Nc1nnc(C2CC(=O)N(c3ccc(F)cc3)C2)o1 (configuration not stated)	102
Fc1ccccc1-c1nnc(C2CCC2)o1	98
Cc1cc2c(cc1[N+](=O)[O-])C(=O)c1cc3ccccc3nc1-2	109
CC1CCN(S(=O)(=O)c2cc(-c3nnc(C4CC4)o3)co2)CC1	104
CCN1C(=O)/C(=C2/Sc3ccccc3N2c2ccccc2)SC1=S	106
CCN(CC)C(=O)Cn1c(-c2ccc(OC)c(OC)c2)nc2ccccc2c1=O	111
CCC(C)NC(=O)c1ccc(-c2cc(N3CCCC3)ncn2)cc1 (configuration not stated)	160

Sorted by molecular weight (low to high): 4 of the compounds above
SMILES	GIV-Gai inh
CCN(CC)C(=O)Cn1c(-c2ccc(OC)c(OC)c2)nc2ccccc2c1=O	111
C#CCOc1ccc(C2CC(=O)Nc3c2cnn3-c2nc3ccccc3s2)cc1 (configuration not stated)	103
COc1ccc(/C=N/OCc2nc3c4c(-c5ccccc5)c(-c5ccccc5)oc4ncn3n2)cc1OC	103
O=C(c1ccc(N2CC3CC(C2)c2cccc(=O)n2C3)c(NS(=O)(=O)c2ccc(Cl)cc2)c1)N1CCCCCC1 (configuration not stated)	108

The list continues:
SMILES	GIV-Gai inh
Cn1cnnc1SCC(=O)Nc1ccc(Br)c2cccnc12	109
CCOCCCNS(=O)(=O)c1cc(-c2nc(C)c(C)s2)sc1C	99
C=CCNC(=O)c1cc2n(n1)CCCC2	104
COc1ccc(C2(C(=O)N3CCN(C)CC3)CC2)cc1	105
N#CC1(C#N)[C@H](c2ccccc2F)[C@@H](C(=O)c2ccccc2)N2c3ccc4ccccc4c3C=C[C@@H]21	114
CCn1c(=O)[nH]c2c(C(=O)N3CCSCC3)snc2c1=O	103
COc1cc(NC(=O)CCSc2nc3c(=O)n(C)c(=O)n(C)c3n2C)c(OC)cc1Cl	104
CCc1nc(CN2C(=O)COc3cc(S(=O)(=O)N4CCC(C)CC4)c(C)cc32)no1	96
Cc1nc(S(=O)(=O)c2ccc(Cl)cc2)c(NCc2ccccc2)o1	111
CCC(=O)Oc1ccc(/C=C2\C(=O)N(c3cccc(Br)c3)N=C2C)cc1OC	107
O=C1c2cc(S(=O)(=O)N(Cc3ccccc3)Cc3ccccc3)cc([N+](=O)[O-])c2-c2c1cc(S(=O)(=O)N(Cc1ccccc1)Cc1ccccc1)cc2[N+](=O)[O-]	114
CC(=O)Nc1cc2c(C)cc(=O)oc2c2c(Nc3ccc(Cl)cc3)coc12	106
CCCN(CCC)C(=O)CSc1nc2ccccc2c(=O)n1CCCC(=O)N1CCN(c2ccccc2)CC1	103
COc1ccc(-c2nnc3c4cccc5cccc(c54)n23)cc1	115
CCOC(=O)N1CCC(Nc2ncnc3c2c(-c2ccccc2)cn3-c2ccc(OC)cc2)CC1	111

Printed as active in GIV-Gai inh (from the list above):
SMILES	GIV-Gai inh
CCCCCN1/C(=C\C=C\c2n(CC)c3cc(Cl)c(Cl)cc3[n+]2CCCCC)N(CC)c2cc(Cl)c(Cl)cc21	-62*

Other entries follow:
SMILES	GIV-Gai inh
CN(C)CCN1C(=O)C(=O)/C(=C(/O)c2ccc(F)cc2)C1c1ccc(F)cc1 (configuration not stated)	114
O=C(CSc1nc(N2CCCCC2)nc2ccccc12)Nc1ccc(F)cc1	109
COCCNc1nc(SCC(=O)n2nc(N)cc2C)nc2ccccc12	100
Cc1nc2cc(-c3noc(-c4ccc(F)c(F)c4)n3)ccc2o1	96
O=c1c2cccc3cccc(c32)c2nc3ccc4ccccc4c3n12	112
N=c1c2c(-c3ccccc3)c(-c3ccccc3)oc2ncn1Cc1ccccc1	112
O=C(Nc1ccc2c(c1)C(=O)c1ccccc1C2=O)c1cccc(C(=O)Nc2ccc3c(c2)C(=O)c2ccccc2C3=O)c1	102
O=c1ccc(-c2ccccc2)nn1CCc1nc(-c2ccc(F)cc2)no1	104
COc1ccc(NC2=CC(c3cccc4ccccc34)N(c3ccc(OC)cc3)C2=O)cc1 (configuration not stated)	112
CCCCN1C(=O)/C(=C/c2c(N3CCN(CCO)CC3)nc3ccccn3c2=O)SC1=S	249
Cc1cc(C)c(OCC(=O)Nc2ccc(S(=O)(=O)Nc3nc(C)cc(C)n3)cc2)c(C)c1	107
Cn1nccc1C(=O)NC1CC1	101
CCCn1cnc2cc(-c3noc(CNC(=O)c4ccccc4)n3)ccc21	100
C=CCOC(=O)C1=C(C)NC(SCC(=O)Nc2ccc(Br)cc2)=C(C#N)C1c1cccs1 (configuration not stated)	112
CC1(C)Cc2c(ccc3ccccc23)C2=C(C#N)C(=O)C(=O)N21	106

Next part (2 carried over from the part before).
SMILES	GIV-Gai inh
C=CCOC(=O)C1=C(C)NC(SCC(=O)Nc2ccc(Br)cc2)=C(C#N)C1c1cccs1 (configuration not stated)	112
CC1(C)Cc2c(ccc3ccccc23)C2=C(C#N)C(=O)C(=O)N21	106
Cc1ccc(-c2noc(-c3nnn(Cc4nc(-c5cccc(Cl)c5)oc4C)c3C)n2)cc1	138
COc1cc(NC(=O)Cn2c3ccccc3n3c(=O)cc(-c4ccccc4)nc23)cc(OC)c1	102
CCOC(=O)C1=C(C)N=c2s/c(=C/c3cc([N+](=O)[O-])ccc3N3CCN(C)CC3)c(=O)n2C1c1ccccc1 (configuration not stated)	103
Clc1c2ccccc2c(-c2nc(-c3ccc(Oc4ccccc4)cc3)c(-c3ccc(Oc4ccccc4)cc3)[nH]2)c2ccccc12	112
Cc1ccc(Nc2nc(NCc3ccco3)nc(N3CCOCC3)n2)c(Br)c1	109
Cc1ccc(-c2nc(-c3ccc(NC(=O)c4cccs4)cc3)no2)cc1[N+](=O)[O-]	109
O=C(Nc1ccccc1Oc1ccccc1)C1CCCN(S(=O)(=O)Cc2ccccc2)C1 (configuration not stated)	102
COc1ccc(OC)c(S(=O)(=O)NCc2ccc3c(c2)CCN3C(=O)c2ccc(F)cc2)c1	105
CN(C)c1ccc(CNS(=O)(=O)c2cc(-c3nc(C(C)(C)C)cs3)cs2)cc1	110
Cc1ccc(C)c(N(C)S(=O)(=O)c2ccc3[nH]cc(C(=O)NCCCN4CCOCC4)c(=O)c3c2)c1	114
c1ccc(-n2cc(-c3nc4ccccc4o3)cn2)cc1	101
Cc1cccc(-n2nnnc2C(C)(C)N(C)C)c1	102
Cc1ccc(-c2noc3ncnc(NCc4ccc5c(c4)OCO5)c23)cc1	99
COc1ccc2c(c1)c(CN1CCC(C(=O)NCCN(C)C)CC1)cn2C	97
COc1cc(C(=O)Nc2c3c(nn2-c2ccc(Cl)cc2)CS(=O)(=O)C3)cc(OC)c1OC	107
O=C(NCc1ccccn1)c1ccc2c(c1)nc1n2CCOC1	101
CCc1ccc(-c2cc(C(F)(F)F)on2)cc1S(=O)(=O)N1CCCCC1CC (configuration not stated)	107
COC(=O)CSc1nc2cc(-c3ccccc3)sc2c(=O)n1C	102
CCOC(=O)C1=C(C)NC2=C(C(=O)C(C(=O)OCC)C(c3ccccc3OC)C2)C1c1cc(C)sc1C (configuration not stated)	101
Cn1c(=O)n(Cc2ccncc2)c(=O)c2cnc(-c3ccc(Cl)cc3)nc21	97
CCOC(=O)C1=NNC2C(=O)N(c3ccc(C)cc3)C(=O)C12 (configuration not stated)	110
Cc1[nH]nc(-c2cc(S(=O)(=O)NCC(C)c3ccccc3)c(C)s2)c1C (configuration not stated)	101
CNC(=O)N(C)Cc1ccc(C)s1	107
Cc1ccc(N2C(=O)CSC23C(=O)N(CN2CCN(c4ccccc4)CC2)c2ccccc23)cc1C (configuration not stated)	115
Cc1oc(C2CCN(C(=O)NC3CCCC3)CC2)nc1C(=O)N1CCCC1	101
COC(=O)c1cc(=O)n2c(n1)sc1cc(C)ccc12	104
Cn1c(=O)n(Cc2ccc(F)cc2)c(=O)c2cnc(-c3cccnc3)nc21	104
Nc1nc(SCCC(=O)O)n[nH]1	104
CC1CCc2c(oc3c2cc(NS(=O)(=O)c2ccc(Cl)cc2)c2ccccc23)C1 (configuration not stated)	100
CCCS(=O)(=O)N1CCOc2ccc(COCc3ccccc3)cc2C1	98
N#CC1(C#N)C(c2cccnc2)C(C(=O)c2ccccc2)N2c3ncccc3C=CC21 (configuration not stated)	137
C=CCSc1c(CCCC)cnc2c1c(=O)n(C)c(=O)n2C	107
COc1ccccc1N1CCN(S(=O)(=O)c2ccc(F)c(C(=O)Nc3cc(C)ccc3C)c2)CC1	107
O=C(NC1CCCc2ccccc21)c1ccc(-c2ccc(F)cc2)nc1 (configuration not stated)	113
COCCOC(=O)C1=C(C)NC(C)=C(C(=O)OCCOC)C1c1ccc(-c2cccc(Cl)c2)o1	102
CCOc1ccc(N2C(=O)C(N3C(=O)c4ccccc4C3=O)C2c2ccc(F)cc2)cc1 (configuration not stated)	110
O=C(c1cccc(F)c1)N1CCN(Cc2cc(=O)n3nc(-c4ccc(F)cc4)sc3n2)CC1	99
COc1cc(C(=O)Nc2ccc(S(=O)(=O)N3CCCCC3c3cccnc3)cc2)cc(OC)c1OC (configuration not stated)	108
Fc1ccc(-c2csc(Cc3nc(-c4ccc(Cl)cc4)no3)n2)cc1	120
COc1ccc(S(=O)(=O)n2c(SCC(=O)Nc3cc(Cl)ccc3OC)nc3ccccc32)cc1	118
CCCOC1CCN(C(C)=O)CC1	97
CCOc1ccc(C(=O)NCCc2sc3nc(-c4ccc(C)cc4)nn3c2C)cc1OCC	98
FC(F)Oc1ccc(-c2cn3c(n2)-c2ccccc2C3)c(OC(F)F)c1	114
CCOC(=O)c1c(S(=O)(=O)N2CCC(C(=O)N3CCc4ccccc4C3)CC2)c(C)n(C)c1C	106
Cc1nnc(-c2ccc(S(=O)(=O)NCc3ccco3)o2)o1	105
Cc1c(C(c2cc(C(C)(C)C)c(O)c(C(C)(C)C)c2)c2c(C)n(C)n(-c3ccccc3)c2=O)c(=O)n(-c2ccccc2)n1C	129
CNC(=O)c1ccc(-c2nc3cc(NS(=O)(=O)c4ccc(C)cc4C)ccc3n2C)cc1	102
C=Cc1ccc(Cn2nc3c(S(=O)(=O)N4CCc5ccccc5C4)cccn3c2=O)cc1	109
CC(C)c1cc(C2CCCN2C(=O)NC2CCCCC2)on1 (configuration not stated)	102
CCSc1nnc(-c2nn(C)c3c2CN(S(=O)(=O)c2cccc(Cl)c2)CC3)n1CC	106
Cc1ccc2nc(NC(=O)C(C)NS(=O)(=O)c3cc(-c4noc(C5CC5)n4)ccc3C)sc2c1 (configuration not stated)	99
CN(CC(=O)N1CCCC1)c1nc(C2CC2)nc2c1CCC2	106
COc1cccc(N2CCN(C(=O)c3cccn4c(=O)c5ccccc5nc34)CC2)c1	98
Cc1ccc(-c2csc3c2ncn2c(=O)n(CC(=O)Nc4ccc5c(c4)OCCO5)nc32)cc1	95
O=S(=O)(NC1CCCCC1)c1ccc(-c2nnc(C3CCC3)o2)o1	106
O=C(Cn1cnc2c(sc3ncccc32)c1=O)NC1CCCCC1	107
Cc1oc(-c2ccccc2)nc1Cn1nnc(-c2nc(-c3ccc4c(c3)OCO4)no2)c1C	106
O=c1ccc(-c2ccc3c(c2)OCO3)nn1CCc1nc(-c2cccc(Br)c2)no1	97
CCc1ccc(-c2ccc(=O)n(CCc3nc(-c4ccc(F)cc4)no3)n2)cc1	104
